# CDC25B-CDK2 inh – human CDC25B-CDK2/CyclinA binding inhibition. z-score (no concentration beside the values). P30305+P24941. 0.72% of 94,000 active. HTRF CDC25B-CDK2/CyclinA binding, anti-His/anti-Flag; hits give high values;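 also: score is relative to mean and SD of negative controls; strong numbers were not always called active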
# TAR Tat displ – HIV-1 TAR-Tat binding disruption | 0.6% of 100,000 active | AID 1259389 | z-score (concentration not given with the values) | HIV-1 TAR RNA, Tat peptide displacement FRET; hits give high values;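 also: score is relative to mean and SD of negative controls; some compounds called inactive have numbers as strong as hits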
# The depositor's hits bear a star; . = not tested or not shown.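 The calls were made as follows: active = z-score from 3 up in half or more of its runs; inactive = the rest.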
SMILES,CDC25B-CDK2 inh,TAR Tat displ
CCCc1nc(N)c(C#N)c(-c2ccccc2OC)c1CC,-1.47,0.78
CN1CCN(C(=O)c2ccc(CS(=O)c3ccc(Br)cc3)o2)CC1 (centres undefined),-1.75,-0.79
COC(=O)C1Sc2[nH]c(=O)sc2C(c2ccc(Cl)cc2)C1C(=O)OC (centres undefined),-2.83,.
CCC(=O)NCC(c1cccs1)S(=O)(=O)c1cccs1 (centres undefined),.,2.4
O=S(=O)(c1cnc[nH]1)N1CCCC(CN2CCc3ccccc3C2)C1 (centres undefined),.,0.86
Cc1ccc(-c2nn3c(Cn4cnc5ccccc54)nnc3s2)cc1C,0.54,1.34
Cc1ccc(-c2c(NCc3ccc(F)cc3)c(=O)c2=O)cc1,.,1.65
Cc1cc(C)cc(-n2ccn3c(CCC(=O)NC4CC4)nnc3c2=O)c1,.,-0.82
COc1ccc(OC)c(C2=NS(=O)(=O)N(C)C(C(=O)Nc3ccc4c(c3)OCO4)=C2)c1,-2.47,1.12
O=C(c1cc(-c2ccc(Cl)cc2)on1)N(Cc1cccs1)C1CCS(=O)(=O)C1 (centres undefined),-2.59,-0.32
COC(=O)c1c(C)csc1NC(=O)CSCc1c(F)cccc1Cl,-1.35,.
CCCn1c2ccccc2c2cnn(CC(=O)N(Cc3ccco3)CC3CCCO3)c(=O)c21 (centres undefined),.,0.68
COC(=O)CC1Oc2ccc(F)cc2-n2cc(-c3ccc(Cl)cc3)nc21 (centres undefined),-2.42,0.37
Cc1ccc(S(=O)(=O)NC(=O)N2CCCN(c3ncccc3[N+](=O)[O-])CC2)cc1,-1.77,.
O=C(CCCN1C(=O)c2cccnc2C1=O)Nc1ccc(Br)cc1,0.05,.
CC1(C)Cc2c(c(N3CCOCC3)nc3sc4c(=O)n(-c5ccc(Cl)cc5)cnc4c23)CO1,-0.17,-1.94
CCCc1c(C(=O)NC2Cc3ccccc3C2)cnn1-c1ccccc1,1.16,.
CN1C(=O)C(C)(C)c2cc(S(=O)(=O)NCC(=O)NCC(=O)NC3CCCC3)ccc21,.,0.22
CCN1CNC(=S)N(c2ccccc2C)C1,0.68,.
O=C(O)CCCCCNc1nnc(Cl)c2ccccc12,0.03,.
OC1(c2ccccc2F)CCNCC1,-1.6,1.31
CC1CN(C(=O)N2CCC(C(=O)N3CCC(C(N)=O)CC3)CC2)c2cc(Cl)ccc2O1 (centres undefined),.,1.7
Cc1ccc(-c2nc3sc(CCNS(=O)(=O)c4ccc(Cl)cc4)c(C)n3n2)cc1,.,1.46
O=C(CN1C(=O)CCSc2ccc(S(=O)(=O)N3CCCC3)cc21)NC1CCCCC1,.,2.44
Cc1ccc2nc(SCc3cn4c(C)cccc4n3)[nH]c2c1,-0.74,.

# In another format: three of the compounds above
# The line under a structure holds: CDC25B-CDK2 inh, TAR Tat displ
- CN1CCN(C(=O)c2ccc(CS(=O)c3ccc(Br)cc3)o2)CC1 (centres undefined)
 : -1.75, -0.79
- COC(=O)C1Sc2[nH]c(=O)sc2C(c2ccc(Cl)cc2)C1C(=O)OC (centres undefined)
 : -2.83, .
- CCC(=O)NCC(c1cccs1)S(=O)(=O)c1cccs1 (centres undefined)
 : ., 2.4

# Continued:
SMILES,CDC25B-CDK2 inh,TAR Tat displ
CCSc1nc2ccccc2c(OCc2cc(C(=O)OC)ccc2OC)c1C(=O)OC,-0.8,0.48
CCCCN1C(SCC(=O)NC2CCCCC2)=NS(=O)(=O)c2ccccc21,.,1.46
CCC1(CC)Cc2ccccc2C(NC(=O)Nc2ccc(F)cc2)=C1C#N,1.01,2.27
Fc1ccccc1-c1noc(NCc2ccco2)n1,.,0.94
COC(=O)c1cnc(SCc2ccc(C(C)(C)C)cc2)nc1N,-0.65,.
CC1Cc2cc(S(=O)(=O)CCC(=O)N3CCOCC3)ccc2N1C(=O)C1CC1 (centres undefined),.,0.21
O=c1[nH]c2ccccc2c(=O)n1C1CCCCC1,.,0.65
CC(C)c1ccc(N2C=[N+](C)c3ccc(C(C)C)cc3C2)cc1,-1.55,.
Cc1cc(C)c2nc(N3CCC(C(=O)N4CCCCC4)CC3)sc2c1,-0.95,1.41
O=C(CSC1=Nc2ccccc2C2=NC(Cc3ccccc3)C(=O)N12)Nc1ccccc1F (centres undefined),.,0.7
CN1C(=O)C(O)(CC(=O)c2cccs2)c2ccccc21 (centres undefined),-1.09,.
O=C(CSc1nc(-c2ccccc2)nc2cc(=O)[nH]n12)N1CCc2ccccc21,.,1.6
CCOC(=O)c1cc(S(=O)(=O)N2CCN(c3ccccn3)CC2)[nH]n1,.,1.79
O=c1cc(CN2CCc3ccccc3C2)nc2nc(-c3ccccc3)[nH]n12,0.64,-0.69
CCOC(=O)c1nc(Nc2cccc(O)c2)c2ccccc2n1,-0.9,1.59
O=c1[nH]c2cc3c(cc2c(=O)n1CCCc1nc(-c2ccccc2)no1)OCO3,.,0.56
Cc1ccccc1NC(=S)NC(NC(=O)/C=C/c1ccccc1)C(Cl)(Cl)Cl (centres undefined),0.08,.
O=C(O)c1ccc(-c2ccccc2F)o1,-1.25,2.67
CCC(C)NC(=O)Cn1ncc2ccsc2c1=O (centres undefined),0.76,1.37
CCOc1cccc2cc(-c3cn4c(n3)sc3ccccc34)c(=O)oc12,-0.68,.
COC(=O)COc1c(C)[nH]ccc1=O,-1.52,.
COC(=O)C1=C(C)Nc2nc3ccccc3n2C1c1cccnc1 (centres undefined),-0.15,1.46
CC(C)CC(C(=O)N1CCN(c2ccccn2)CC1)N1Cc2ccccc2C1=O (centres undefined),.,2.96
Cc1ccc(C)c(N2CCN(S(=O)(=O)c3ccc4c(c3)n(C)c(=O)n4C)CC2)c1,-1.2,1.48
CSc1nc2c(c(Nc3ccc4c(c3)OCCO4)n1)CCC2,1.41,1.17
# Further structures.
SMILES,CDC25B-CDK2 inh,TAR Tat displ
Cc1ccc(C2CC(C(F)(F)F)n3nc(C(=O)N(C)Cc4c(C)nn(C)c4C)cc3N2)cc1 (centres undefined),-1.53,1.45
C=CCOc1cc(=O)[nH]c2ccccc12,-0.82,.
CN1CCN(c2ccc3nnc(CCC(=O)Nc4ccc(F)c(F)c4)n3n2)CC1,.,0.76
Cc1ccc(S(=O)(=O)c2c(C(=O)c3ccccc3)cnc3cc4c(cc23)OCO4)cc1,1.61,0.39
Cc1ccc(-c2nc3cc(Cl)ccc3o2)cc1NC(=O)c1sc2ccccc2c1Cl,-1.72,.
CCOC(=O)C1=C(CC(=O)Nc2ccc(OC)cc2)C(=O)N(c2ccc(F)cc2)C1C (centres undefined),0.25,.
CC(NC(=O)c1nn2c(c1Cl)NC(c1ccccc1)CC2C(F)(F)F)c1ccccc1 (centres undefined),-0.61,1.71
CCOC(=O)CCN(CCl)C(=O)OC,-0.95,.
C=CCOC(=O)C1=C(C)N=C2SCCC(=O)N2C1c1ccc(OC)cc1 (centres undefined),0.92,-0.92
Cn1c(C(=O)NCCCN2CCOCC2)cc2sccc21,-0.65,0.85
Cc1csc2nc(CSc3nnc(NC(=O)c4cccs4)s3)cc(=O)n12,.,0.69
CSc1ccc(NC(=O)Cn2cnc3c(=O)n(C)c(=O)n(C)c32)cc1,-1.15,0.55
CCNC(=O)C1CCN(c2nnc(-n3cccc3)s2)CC1,.,1.19
COCC(=O)Nc1cc(F)c2nc(N3CCOCC3)ccc2c1,.,-1.28
Cc1cc(C)c(C(=O)Nc2cccnc2)c(CC(C)(C)C(=O)O)c1,-2.75,.
CSc1ccc(C2CC(=O)Nc3c2cnn3-c2nc3ccccc3s2)cc1 (centres undefined),.,1.09
O=C(COCc1cc(-c2ccc(F)cc2)on1)N1CCc2ccccc21,.,2.16
Cc1ccc(-n2ncc3c(N4CCN(C)CC4)ncnc32)cc1Cl,.,0.28
COc1cc2[nH]c(Nc3ccc(Cl)cc3)c([N+](=O)[O-])c2cc1OC,2.55,-0.16
CCCN(CCC)S(=O)(=O)c1ccc2nc(NC(C)=O)sc2c1,.,-0.13
O=c1c2cccnc2n(Cc2ccccc2F)c(=O)n1Cc1cccs1,-1.77,1.83
CC(C)CCNC(=O)c1ccc(N2CCc3ccccc32)s1,.,1.2
CCOC(=O)c1c(S(=O)(=O)NCC(=O)N2CCCCC2)c(C)n(C)c1C,.,0.08
COC(=O)c1ccc(-c2ccco2)[nH]1,-1.46,-0.63
O=C(COCc1cc(-c2ccco2)on1)Nc1ccc(Br)cc1F,.,-0.19
# (further entries)
SMILES,CDC25B-CDK2 inh,TAR Tat displ
COc1ccc(-c2nc(=S)c3c([nH]2)Oc2cc(O)ccc2C3)cc1,0.31,-7.24
CC(C)Cn1c(C(C)O)nc2ccccc21 (centres undefined),0.09,0.38
CC1CN(C(=O)CCC(=O)NCCC2=CCCCC2)c2ccccc2S1 (centres undefined),.,2.29
CC(NC(=O)c1nn2c(c1Br)NC(c1cccs1)CC2C(F)(F)F)c1ccccc1 (centres undefined),-0.59,0.7
O=C(Nc1sc2c(c1C(=O)NCC1CCCO1)CCC2)c1cc(=O)c2cc(Cl)ccc2o1 (centres undefined),-0.59,0.43
CCN1CCN(C(c2cccs2)c2ccc3cccnc3c2O)CC1 (centres undefined),.,4.89
CC(NS(=O)(=O)c1ccc(Br)cc1)c1nc(-c2ccc(C(C)(C)C)cc2)no1 (centres undefined),0.47,1.7
Cc1nc2ccc(NC3=C(C(=O)Nc4ccc(F)cc4)S(=O)(=O)c4ccccc43)cc2[nH]1,.,0.72
COc1ccc(NC(=O)c2noc3c2CCc2sccc2-3)cc1Cl,.,1.13
COc1ccc(-c2cc(OC(=O)c3cccs3)c3c(C)oc(C)c3c(=O)c2)cc1OC,-0.46,-0.25
CCCCC12CN3CC(C)(CN(C1)C3c1ccc(OC)c(OC)c1)C2=O (centres undefined),-2.42,-0.55
Cc1ccc(NS(=O)(=O)c2[nH]ncc2-c2cccc(Cl)c2)cc1,-0.17,3.39
O=C(CCCCCN1C(=O)c2cccc3cccc(c23)C1=O)Oc1ccc2c3c(c(=O)oc2c1)CCC3,1.11,.
CCOC(=O)CC(=O)Nc1ccsc1C(=O)OC,-1.77,-0.62
CCOC(=O)c1c(NC(=O)COc2cccc(Br)c2)sc(C)c1C,-2.9,-0.28
CC1(C)Cc2ccccc2-c2[nH]c(=O)n(-c3ccc(F)cc3)c(=O)c21,-1.23,1.24
Cc1oc2c(c(C)cc3oc(=O)cc(-c4ccccc4)c32)c1C,-2.11,.
CC1Cc2cc(S(=O)(=O)N3CCCC(C(=O)NC4CCCC4)C3)ccc2N1C(=O)C1CC1 (centres undefined),.,0.37
CC(=O)c1sc(-c2ccsc2)nc1C,-0.96,.
CC1CC(C)CN(C(=O)C2CCN(c3nc4ccccc4[nH]3)CC2)C1 (centres undefined),-2.24,0.79
CCOC(=O)C1CCN(C2=NS(=O)(=O)C(c3ccc(C(C)C)cc3)=C2C)CC1,-1.77,0.38
Cc1c(C(=O)CSc2n[nH]c(=O)n2-c2cccnc2)sc2ccc(Cl)cc12,-1.03,.
CC1=C(c2ccc(C)cc2)S(=O)(=O)N=C1Nc1c(C)cccc1C,-1.23,-1.59
CC(C)CCNc1nc2c(S(=O)(=O)c3cccc(Cl)c3)nnn2c2ccsc12,.,1.22
CC(=O)C1C(c2ccc(Cl)cc2)NC(=O)NC1(O)C(F)(F)F (centres undefined),-1.12,.
# Next section
SMILES,CDC25B-CDK2 inh,TAR Tat displ
COc1ccc(OC)c(-c2cc(C(=O)O)c3c(-c4ccc(F)cc4)[nH]nc3n2)c1,.,1.7
CCCC(=O)Nc1nnc(SCc2cc(=O)n3cc(C)sc3n2)s1,.,1.88
CC(C)c1cc(C2CCCN2C(=O)Cn2nc(C(F)(F)F)c3c2CCCC3)no1 (centres undefined),.,0.82
C=CCN1C(=O)C2(c3ccccc31)c1c(oc3ccccc3c1=O)C(=O)N2CCO (centres undefined),-1.56,2.92
O=C1c2ccccc2C(=O)c2c(NC(=O)C3CC4CCC3C4)cccc21 (centres undefined),-2.77,.
COc1ccc(-c2n[nH]c(=O)c(Cc3ccc(OC(C)C)cc3)n2)cc1,.,0.18
CC1CCC(NC(=O)C2CCCN(S(=O)(=O)c3ccc4c(c3)CCCC(=O)N4)C2)CC1 (centres undefined),.,3.05
C=C[C@@](C)(O)CCC1C(=C)C[C@H](OC(C)=O)C2C(C)(C)CCCC12C (some centres undefined),.,2.53
N#Cc1c(N)nc2c(c1-c1ccco1)CCCC2,19.4*,-3.66
Cc1ccnc(NS(=O)(=O)c2ccc(NC(=O)c3csnn3)cc2)n1,-1.35,-1.13
CP(=O)(COC(=O)c1ccccc1)COC(=O)c1ccccc1,-1.16,.
Cc1cc2cc(CCNS(C)(=O)=O)c(=O)[nH]c2cc1C,-2.21,.
Cc1cc(C)n(Cc2ccc(C(=O)O)cc2)n1,-0.79,.
Cc1cc2n(n1)C(c1ccc3c(c1)OCO3)Nc1ccccc1-2 (centres undefined),-1.15,0.88

# Structural class: those above containing an aryl methoxy group (12)
SMILES,CDC25B-CDK2 inh,TAR Tat displ
CCCc1nc(N)c(C#N)c(-c2ccccc2OC)c1CC,-1.47,0.78
COc1ccc(OC)c(C2=NS(=O)(=O)N(C)C(C(=O)Nc3ccc4c(c3)OCO4)=C2)c1,-2.47,1.12
CCSc1nc2ccccc2c(OCc2cc(C(=O)OC)ccc2OC)c1C(=O)OC,-0.8,0.48
CCOC(=O)C1=C(CC(=O)Nc2ccc(OC)cc2)C(=O)N(c2ccc(F)cc2)C1C (centres undefined),0.25,.
C=CCOC(=O)C1=C(C)N=C2SCCC(=O)N2C1c1ccc(OC)cc1 (centres undefined),0.92,-0.92
COc1cc2[nH]c(Nc3ccc(Cl)cc3)c([N+](=O)[O-])c2cc1OC,2.55,-0.16
COc1ccc(-c2nc(=S)c3c([nH]2)Oc2cc(O)ccc2C3)cc1,0.31,-7.24
COc1ccc(NC(=O)c2noc3c2CCc2sccc2-3)cc1Cl,.,1.13
COc1ccc(-c2cc(OC(=O)c3cccs3)c3c(C)oc(C)c3c(=O)c2)cc1OC,-0.46,-0.25
CCCCC12CN3CC(C)(CN(C1)C3c1ccc(OC)c(OC)c1)C2=O (centres undefined),-2.42,-0.55
COc1ccc(OC)c(-c2cc(C(=O)O)c3c(-c4ccc(F)cc4)[nH]nc3n2)c1,.,1.7
COc1ccc(-c2n[nH]c(=O)c(Cc3ccc(OC(C)C)cc3)n2)cc1,.,0.18

# Compound activity from PubChem.
